Bioassay records as filed in PubChem BioAssay.
Cruzain noTriton: inhibitors of Trypanosoma cruzi cruzain without detergent. 200,000 compounds, 2.3% hits. Potency, µM, inactives show max response, negative = inhibition, usual class: inhibitors. purified cruzain, Z-FR-AMC fluorescence, no detergent;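 further: plate controls were enzyme without inhibitor for no effect and buffer without enzyme for full effect; nearly all actives have a fitted effect of over 40% in size; top concentration of the series not given in the record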
Target sequence (P25779 123-467 limits assumed): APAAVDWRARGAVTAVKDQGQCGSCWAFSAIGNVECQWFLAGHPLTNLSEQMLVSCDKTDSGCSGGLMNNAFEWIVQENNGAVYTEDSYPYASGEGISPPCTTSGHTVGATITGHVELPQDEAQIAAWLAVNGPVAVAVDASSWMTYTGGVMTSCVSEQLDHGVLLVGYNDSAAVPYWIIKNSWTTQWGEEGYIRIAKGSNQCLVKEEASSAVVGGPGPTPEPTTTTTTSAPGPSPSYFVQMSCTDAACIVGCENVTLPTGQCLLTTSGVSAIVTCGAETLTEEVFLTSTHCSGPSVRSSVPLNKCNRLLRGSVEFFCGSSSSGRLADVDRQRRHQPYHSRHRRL
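Purified cruzain at 1.5 nM, pre-incubated 15 min with compound at room temperature in 100 mM sodium acetate pH 5.5, 5 mM DTT, 0.00005% Triton X-100. Reaction started with 2 uM Z-FR-AMC; AMC fluorescence increase over 60 s gives rate.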
Marburg entry inh: blocks Marburg virus binding to or entry into cells; Marburg virus pseudotyped entry inhibition, cell reporter; control for the full effect not named in the record; about a third of the inactives were read at about 46 µM; Potency, µM (top dose mostly 37.8 µM), for the others: at the highest dose activity change, negative = inhibition, most hits filed as inhibitors; 300,000 compounds, 1.8% hits; AID 540276; active = well fitted inhibition curve with a large enough effect; inconclusive = small, poorly fitted or top-dose-only effect, or effect the other way; inactive = flat fitted curve, though single readings scatter; tested in HEK293 cells; about a fifth of its hits are not listed in these tables; further: on the % scale 0 is the no-effect control and ±100 the full control effect; luciferase read-out
SARS PLP yeast: SARS-CoV PLP inhibition in yeast; S. cerevisiae expressing SARS-CoV PLpro, growth rescue; control for the full effect not named in the record; Potency, µM (titrated, usually from 32.9 µM), for the others: at the top dose activity, positive = growth rescue; 330,000 compounds, 0.19% hits; AID 485353; active means well fitted rising curve with a large enough effect; inconclusive means small, poorly fitted or top-dose-only effect; inactive means no such curve, though single readings can be large or run the other way; further: 0% is about no effect; nearly all actives have a fitted effect of over 55% in size; growth read by luminescence after 48 h
Lassa entry inh: Lassa virus entry inhibition; Lassa virus pseudotype entry inhibition, cell reporter; control for the full effect not named in the record; Potency, µM (titrated, usually from 37.9 µM), for inactives: top-dose activity change, negative = inhibition, actives largely listed as inhibitors; 300,000 compounds, 1.2% hits; active means well fitted inhibition curve with a large enough effect; inconclusive means small, poorly fitted or top-dose-only effect, or effect the other way; inactive means flat fitted curve, though single readings scatter; tested in HEK293 cells; further: on the % scale 0 is the no-effect control and ±100 the full control effect; nearly all actives have a fitted effect of over 50% in size; luciferase read-out
NS1 function inh: inhibitors of influenza NS1 protein function. 270,000 compounds, 0.4% hits. AID 2326. Potency, µM (top dose mostly 46.1 µM), without a hit: at the highest dose activity, positive = more growth. S. cerevisiae slowed by influenza A NS1, growth recovery by OD600; active means well fitted rising curve with a large enough effect; inconclusive means small, poorly fitted or top-dose-only effect; inactive means no such curve, though single readings can be large or run the other way; further: nearly all actives have a fitted effect of over 50% in size
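Read-out: OD600 growth recovery of NS1-expressing budding yeast. Cells grown overnight at 30C in -URA glucose medium, washed, resuspended and diluted 1:100 in 2% galactose assay medium, pH 6.0. Same strain lacking NS1 served as positive control.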
2A StopGo: FMDV 2A StopGo reporter, luciferase signal; human cells with a luciferase reporter of 2A StopGo recoding; control for the full effect not named in the record; Potency, µM (titrated, usually from 57.9 µM), inactives show at the highest dose signal change, negative = less light; 410,000 compounds, 1.2% hits; AID 1159524; active = well fitted falling curve with a large enough effect; inconclusive = small, poorly fitted or top-dose-only effect; inactive = no such curve, though single readings can be large or run the other way; tested in HEK293T cells; further: on the % scale 0 is the no-effect control and ±100 the full control effect; nearly all actives have a fitted effect of over 45% in size; luciferase light after 4 h
RE007 growth inh: less growth of the S. pombe RE007 Vpr strain; S. pombe RE007 Vpr strain, BacTiter-Glo ATP luminescence, 24 h; control for the full effect not named in the record; Potency, µM (titrated, usually from 92.2 µM), for inactives: at the highest dose activity change, negative = less growth; 360,000 compounds, 0.21% hits; AID 651644; active = well fitted falling curve with a large enough effect; inconclusive = small, poorly fitted or top-dose-only effect; inactive = no such curve, though single readings can be large or run the other way;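 further: on the % scale 0 is the no-effect control and ±100 the full control effect; nearly all actives have a fitted effect of over 50% in size; the assay follows cell death caused by Vpr and the record does not say whether a fall means rescue or toxicity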
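Fission yeast strain RE007, carrying one chromosomally integrated HIV-1 vpr copy, was seeded at OD 0.01 in PMG+AL medium with 23 nL pinned compound. After 24 h at 30 °C and 99% humidity, viability was read by BacTiter-Glo luminescence.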
Cruzain Triton: inhibitors of Trypanosoma cruzi cruzain with detergent; P25779; purified cruzain, Z-FR-AMC fluorescence, 0.01% Triton; Potency, µM, for inactives: max response, negative = inhibition, actives largely listed as inhibitors; 200,000 compounds, 0.43% hits; AID 1478;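 further: plate controls were neutral wells for no effect and buffer without enzyme for full effect; nearly all actives have a fitted effect of over 40% in size; top concentration of the series not given in the record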
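Compounds were screened in titration against cruzain (1.5 nM) with 0.01% Triton X-100 to counter colloidal aggregation. Activity was the AMC fluorescence increase over 60 s after adding 2 uM Z-FR-AMC at pH 5.5.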
Numbers without * were called inactive; ? = inconclusive; · = not tested or not shown; & = joins results of further samples; [ ] = remark or other dose. Unless noted, the call rests on the fitted dose curve; in most records, active means well fitted curve in the direction sought with a large enough effect; inconclusive means small, poorly fitted or top-dose-only effect, or another doubt; inactive means no such curve, though single readings can be large; an effect the other way counts as inactive or inconclusive. Potency means the concentration at half of the fitted maximal effect.

The line under a structure holds: Cruzain noTriton | Marburg entry inh | SARS PLP yeast | Lassa entry inh | NS1 function inh | 2A StopGo | RE007 growth inh | Cruzain Triton
> COC(=O)c1[nH]c2cccc(OC)c2c1NC(=O)CCN1CCC(C(N)=O)CC1
    -19% | · | -2% | · | 11% | · | · | 3.0%
> Cc1ccc(C2=NN(CCC(=O)N3CCC4(CC3)OCCO4)C(=O)CC2)cc1
    · | 14%[46.1 µM] | 2% | -26% | · | -14% | -16% | ·
> CCOc1ccccc1N1CCN(CC(=O)NC(C)c2ccccc2)CC1 (stereo not drawn)
    · | ? | 0% | -23%[46.1 µM] | -13% | -9% | -9% | ·
> O=CN/C=C/c1cc(O)ccc1O
    · | · | 1% | · | -1% | -23% | -3% | ·
> CN=c1sc2ccccc2n1CC(O)COCc1ccco1 (stereo not drawn)
    2% | 0%[46.1 µM] | · | 3% | 7% | 4% | -19% | 2.6%
> CSc1ccc(/C=C/C(=O)N2CCCN(C)CC2)cc1
    · | 7%[46.1 µM] | 0% | ? | · | 12% | 11% | ·
> Cc1cccc(-n2c(C)nc3cc(C(=O)NCCC4=CCCCC4)ccc32)c1
    27% | · | · | 13%[46.1 µM] | · | 0% | · | 1.1%
> Cc1ccc(-c2nnn3c2nc(NCC(C)c2ccccc2)c2ccccc23)cc1 (stereo not drawn)
    5µM* | 21%[46.1 µM] | · | 15%[46.1 µM] | · | 25% | · | -0.3%
> COc1ccc(/C=C2\CC/C(=C\c3ccc(OC)c(OC)c3)C2=O)cc1OC
    15% | ? | 1% | ? | 11% | ? | 5% | -9.0%
> CC12CCC(C(=O)NCc3ccc4c(c3)OCO4)(C(=O)C1=O)C2(C)C (stereo not drawn)
    3% | 18% | 5% | 21% | 11% | 4% | -4% | 2.6%
> COc1ccc(CN2CCCC(CNC(=O)c3ccc(F)cc3)C2)c(C)c1C (stereo not drawn)
    · | · | 17% | · | -2% | -20% | 4% | ·
> CCNC(=O)COC(=O)Cc1ccc(Cl)cc1Cl
    · | 10%[46.1 µM] | 0% | -1% | 2% | 14% | 7% | ·
> O=C(/C=N\O)NCCCNCc1ccccc1
    -5% | 1% | 2% | -11% | 6% | · | 2% | 3.4%
> O=C(Nc1c(F)cc(F)cc1Br)c1ccco1
    7% | -10% | -1% | 12%[14.3 µM] | -4% | 18% | -1% | 6.9%
> CCOCCn1c(SCC(=O)OCc2ccccc2)nc2c1c(=O)[nH]c(=O)n2C
    · | · | -1% | · | 3% | 0% | 5% | ·
> COc1ccc(N(CC(=O)NCCC2=CCCCC2)S(=O)(=O)c2ccccc2)c(OC)c1
    · | 0%[46.1 µM] | 0% | 4%[46.1 µM] | -6% | 14% | 19% | ·
> O=C1Nc2cc(C(=O)N3CCN(c4ccccn4)CC3)ccc2S/C1=C\c1ccccc1
    · | · | 0% | · | 7% | 0% | -10% | ·
> Cc1nn(C(=O)c2c(-c3ccccc3)noc2C)c(C)c1N=Nc1cc(C(F)(F)F)cc(C(F)(F)F)c1
    · | · | -1% | · | 4% | -2% | 8% | ·
> CS(=O)(=O)Nc1nc2n(n1)C(c1ccccc1)CC(c1ccccc1)N2 (stereo not drawn)
    · | -1% | -3% | -8% | 1% | -10% | 3% | ·
> COc1cccc(NC(=O)CSC(N)=O)c1
    -22% | 14% | -9% | 1% | ? | ? | 1% | -17%
> COc1cc(OC)cc(C(=O)OCC(=O)NCc2ccc3c(c2)OCO3)c1
    · | 6%[46.1 µM] | -1% | 15%[46.1 µM] | · | -6% | 2% | ·
> CC1=C(C(=O)Nc2ccccc2)C(c2cccs2)n2nc(SCc3ccccc3F)nc2N1 (stereo not drawn)
    -1% | ? | · | 27%[46.1 µM] | · | 3% | · | 0.2%
> CCN(CC)CC(=O)Nc1ccc(C)cc1C(=O)c1ccccc1
    · | -8%[46.1 µM] | 1% | 2% | -3% | 8% | 18% | ·
> CCCCn1c(-c2ccccc2)nc2c(=O)n(C)c(=O)[nH]c21
    16% | 22% | 8% | -13% | -2% | 3% | 3% | 1.4%
> c1ccc(NC2=NCCCCS2)cc1
    -1% | ? | 17% | 0% | 4% | 16% | -3% | -0.8%
> CCOc1cc2[nH]c(=O)n(CCCCC(=O)N3CCN(c4ccc(OC)cc4)CC3)c(=O)c2cc1OCC
    -9% | · | · | -20%[46.1 µM] | · | ? | · | 2.8%
> O=C(NC1CCC(c2ccccc2)CC1)c1cccnc1 (stereo not drawn)
    · | ? | 0% | 18%[46.1 µM] | 2% | -14% | 13% | ·
> Cc1cccc(NC(=O)CN2C(=O)N/C(=C/c3ccc(C)o3)C2=O)c1
    ? | ? | 13% | 15% | 9% | -5% | -13% | -2.3%
> CCCCNc1cc(N2CCN(C3CCCCC3)CC2)c2noc3c2c1C(=O)c1ccccc1-3
    0% | 4%[46.1 µM] | · | 1%[46.1 µM] | · | -8% | · | 0.0%
> COc1cccc(OCCCCCN2CCOCC2)c1
    16% | 12% | 2% | -9% | -4% | 11% | -3% | -0.4%

One compound at a time, from the list above.
Cc1cccc(NC(=O)CN2C(=O)N/C(=C/c3ccc(C)o3)C2=O)c1 is listed as Cruzain noTriton: ?; Marburg entry inh: ?; SARS PLP yeast: 13%; Lassa entry inh: 15%; NS1 function inh: 9%; 2A StopGo: -5%; RE007 growth inh: -13%; Cruzain Triton: -2.3%
CC1=C(C(=O)Nc2ccccc2)C(c2cccs2)n2nc(SCc3ccccc3F)nc2N1 (stereo not drawn) is listed as Cruzain noTriton: -1%; Marburg entry inh: ?; SARS PLP yeast: ·; Lassa entry inh: 27%[46.1 µM]; NS1 function inh: ·; 2A StopGo: 3%; RE007 growth inh: ·; Cruzain Triton: 0.2%

The list continues.
The line under a structure holds: Cruzain noTriton | Marburg entry inh | SARS PLP yeast | Lassa entry inh | NS1 function inh | 2A StopGo | RE007 growth inh | Cruzain Triton
> CCc1ccc(NC(=O)CSc2nc3nc(C)cc(C)n3n2)cc1
    4% | 5%&-20%[46.1 µM] | 0% | 0%&-8%[46.1 µM] | -12% | -25%&-27% | 5% | -0.3%
> COC(=O)NCC(c1ccco1)N1CCN(c2ccc(F)cc2)CC1 (stereo not drawn)
    3% | 1% | -7% | -28% | -4% | 3% | 5% | -0.3%
> Cc1ccc2nc(SCC(=O)N3CCCC3)[nH]c2c1
    -11% | -3% | -1% | ? | -11% | 9% | -2% | 5.6%
> CC(C)CC(=O)N1CC(C)N(C(=O)CC(C)C)CC1C (stereo not drawn)
    13% | 3% | 13% | 19% | 1% | · | · | -0.9%
> Cc1ccc(C)c(C(=O)COC(=O)c2n[nH]c3ccccc23)c1
    · | 2% | -11% | ? | · | 58%[activator] | 2% | ·
> c1ccc2c(Nc3ccc(N4CCOCC4)cc3)nc(N3CCOCC3)nc2c1
    · | ? | 3% | ? | 15% | ? | -15% | ·
> CCOC(=O)CC1=CSC2=NS(=O)(=O)CCN12
    0% | -8% | -8% | 12% | -5% | 0% | -1% | 1.8%
> CCN1CCN(C(c2ccccn2)c2c(NC(=O)c3ccccc3)sc(C)c2C)CC1 (stereo not drawn)
    0% | 10µM* | -6% | ? | 11% | ? | -9% | -1.9%
> COc1cc(NS(=O)(=O)c2ccc(NC(=O)Cc3ccccc3)cc2)nc(OC)n1
    · | 4%[46.1 µM] | 11% | 16% | 7% | 1% | 8% | ·
> CN1CCN(CCCC(=O)c2ccc(C3CCCC3)cc2)CC1
    -5% | ? | -7% | ? | 7% | -6% | 11% | -7.9%
> O=C(NC1CCCCC1)c1ccc2c(c1)sc1nc(-c3ccccc3)cn12
    6% | · | · | 1%[46.1 µM] | · | 10% | · | -1.6%
> CCOC(=O)/C=C1/SCC(=O)N1CC(=O)Nc1ccc2c(c1)CCC2
    · | 11% | · | ? | · | 5% | 9% | ·
> O=C(CNC(=O)c1ccco1)OCC(=O)c1ccc2c(c1)CCCC2
    0% | 16% | -9% | 3% | -20% | 24% | -2% | -9.9%
> Cc1cc(C)c2nc(NC(=O)c3cc(C)on3)sc2c1
    -24% | 0% | 5% | 9% | -14% | 1% | -2% | -2.9%
> O=S(=O)(Cc1ccccc1)/C1=C(\N2CCOCC2)CCCCCC1
    -11% | -5% | 5% | 13% | -32% | -10% | 0% | 2.5%

Later entries:
SMILES,Cruzain noTriton,Marburg entry inh,SARS PLP yeast,Lassa entry inh,NS1 function inh,2A StopGo,RE007 growth inh,Cruzain Triton
COc1ccc(NC(=O)Nc2nnc(N(CC(C)C)CC(C)C)s2)c(OC)c1,22%,-29%[46.1 µM],·,-25%[46.1 µM],·,-20%,·,-2.6%
Cc1ccc(C(=O)Nc2nnc(S(=O)(=O)N(C)Cc3ccc(F)cc3)s2)cc1,?,·,·,4%[46.1 µM],·,29%,·,-1.6%
CC(=O)c1cccc(NC(=O)N2CCCCCC2)c1,·,·,2%,·,14%,11%,0%,·
COc1ccc(NC(=O)CCN2CCN(c3ccccc3F)CC2)c(OC)c1,·,0%,·,-25%,6%,-7%,-12%,·
O=C(O)c1ccc(N2C(=O)c3[nH]nc(-c4ccccc4)c3C2c2cccc(F)c2)cc1 (stereo not drawn),0%,23%[46.1 µM],·,22%[46.1 µM],·,-12%,·,-7.1%
O=C(Nc1cc(N2CCOCC2)ncn1)c1ccc(F)cc1,·,?,-1%,?,-4%,-16%,53%,·
CC(C)[C@H](NC(=O)OC(C)(C)C)C(=O)N1CCC(C(=O)N[C@@H](C)C(=O)Nc2ccc(F)cc2)CC1,·,·,1%,·,0%,-15%,-9%,·
CCCOc1ccc(/C=N/NC(=O)c2ccc3c(c2)OCO3)c(OCCC)c1,·,-13%[46.1 µM],1%,1%,10%,-17%,-19%,·
CCOc1c(/C=C(\C#N)C(N)=O)c2ccccc2n1CC,-23%,?,14%,-4%,-13%,?,9%,-8.3%
